Vaccinia inh – blocks a specific stage of Vaccinia orthopoxvirus infection; Vaccinia-infected cells, mCherry/Venus stage reporter fluorescence; stronger effect = lower value; some inactives read as strong as hits; activity change (mCherry), % (no concentration beside the values); hit rate 0.01% among 89,000;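 active = mCherry past -33% and 40 or more points under the early reporter, replicates agreeing; inconclusive = past -33% without that gap or agreement; tested in A549 cells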;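 also: scaled between vehicle wells and reference inhibitor wells; 23 nL library stock went into each well; one replicate is shown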
Vaccinia inh Venus – recorded beside Vaccinia inh, whose call it bears; activity change (Venus), %; measured here: Venus reporter, other viral stage;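 negative = less Venus signal; first of two replicates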
* marks the source's active call; other numbers are inactive results; ? = inconclusive; nt = not tested or not shown; & = joins results of further samples.

| smiles | Vaccinia inh | Vaccinia inh Venus |
| --- | --- | --- |
| C[C@@H]1CN([C@@H](C)CO)C(=O)c2cc(C#CC3CCCC3)cnc2O[C@H]1CN(C)S(=O)(=O)c1cccc(F)c1 | ? | nt |
| COc1ccc(S(=O)(=O)Nc2ccc3c(c2)C(=O)N([C@H](C)CO)C[C@H](C)[C@H](CN(C)Cc2ccc(C(=O)O)cc2)OCCCC[C@H](C)O3)cc1 | 40 | 23 |
| COc1ccc(NC(=O)N(C)C[C@H]2Oc3c(NC(=O)c4cnccn4)cccc3C(=O)N([C@@H](C)CO)C[C@@H]2C)cc1 | 11 | 5 |
| C[C@H]1CN([C@@H](C)CO)C(=O)Cc2cc(NC(=O)c3ccncc3)ccc2O[C@@H]1CN(C)S(=O)(=O)c1ccccc1 | 2 | -1 |
| Cc1ccc(S(=O)(=O)N2C[C@H](O)COC[C@H]3O[C@H](CC(=O)NCC4CCCCC4)CC[C@@H]32)cc1 | -24 | -22 |
| COc1ccc(NC(=O)N(C)C[C@@H]2OCCCC[C@@H](C)Oc3ccc(NC(=O)CCC(F)(F)F)cc3C(=O)N([C@H](C)CO)C[C@H]2C)cc1 | 18 | 7 |
| COc1ccc(NC(=O)N[C@@H]2CC[C@@H](CCn3cc(-c4ccccc4F)nn3)O[C@@H]2CO)cc1 | 13 | 14 |
| COc1ccc(NC(=O)Nc2ccc3c(c2)C(=O)N([C@@H](C)CO)C[C@@H](C)[C@@H](CN(C)Cc2ccc(C(=O)O)cc2)OCCCC[C@H](C)O3)cc1 | 1 | -12 |
| CN(C)C(=O)[C@H]1[C@H](CO)[C@H]2Cn3c(ccc(C4=CCCC4)c3=O)[C@@H]1N2CCC(F)(F)F | 6 | 14 |
| C[C@H]1CN([C@@H](C)CO)S(=O)(=O)c2ccc(-c3cncnc3)cc2O[C@H]1CN(C)C(=O)C1CCCCC1 | 5 | -4 |
| C[C@@H]1CN([C@H](C)CO)C(=O)CCCn2cc(nn2)CO[C@@H]1CN(C)Cc1ccccc1C(=O)O | 18 | 12 |
| C[C@@H]1CN([C@H](C)CO)C(=O)c2cc(C3=CCCC3)cnc2O[C@H]1CN(C)C(=O)c1ccc(F)cc1 | ? | nt |
| CCNC(=O)[C@H]1[C@H](CO)[C@H]2Cn3c(ccc(-c4ccccc4)c3=O)[C@@H]1N2Cc1cccnc1 | 14 | 24 |
| COc1ccccc1CN(C)C[C@@H]1OCc2cnnn2CCCC(=O)N([C@H](C)CO)C[C@H]1C | 3 | 6 |
| CC(C)c1cn(CC[C@H]2CC[C@H](NC(=O)Nc3cc(Cl)cc(Cl)c3)[C@H](CO)O2)nn1 | 7 | 8 |
| C[C@@H]1CN([C@@H](C)CO)C(=O)c2cccc(NS(=O)(=O)c3cccs3)c2O[C@@H]1CN(C)Cc1ccc(C(F)(F)F)cc1 | -13 | -1 |
| COc1ccccc1-c1cnc2c(c1)C(=O)N([C@H](C)CO)C[C@@H](C)[C@@H](CN(C)C(C)=O)O2 | 25 | 1 |
| CC=Cc1ccc2n(c1=O)C[C@@H]1[C@@H](CO)[C@H](C(=O)NCCc3ccncc3)N[C@H]21 (mixture of isomers) | 5 | 4 |
| CO[C@@H]1CN(C)C(=O)c2cc(NC(=O)c3ccno3)ccc2OC[C@H](C)NC[C@@H]1C | 0 | 52 |
| CN(C)CC(=O)N[C@H]1CC[C@H](CC(=O)NCc2ccc(Cl)cc2)O[C@H]1CO | 20 | 14 |
| COc1cccc(S(=O)(=O)N2CCCCN3[C@H](CO)[C@H](c4ccc(C#CC(C)C)cc4)[C@@H]3C2)c1 | ? | nt |
| O=C(C[C@H]1CC[C@@H]2[C@H](COC[C@H](O)CN2C(=O)c2ccccc2F)O1)N1CCN(c2ccccc2)CC1 | 6 | 8 |
| C[C@H](O)C#Cc1ccc2c(c1)O[C@@H](CN(C)C(=O)CN(C)C)[C@H](C)CN([C@@H](C)CO)S2(=O)=O | 2 | 1 |
| CC(C)CC#Cc1ccc2c(c1)O[C@H](CN(C)C(=O)Nc1ccccc1F)[C@H](C)CN([C@H](C)CO)S2(=O)=O | ? | nt |
| COc1ccccc1C#Cc1ccc2c(c1)O[C@@H](CN(C)Cc1ccncc1)[C@@H](C)CN([C@@H](C)CO)S2(=O)=O | ? | nt |
| C[C@@H]1CN([C@@H](C)CO)S(=O)(=O)c2ccc(C#Cc3ccc(F)cc3)cc2O[C@@H]1CN(C)C | ? | nt |
| O=C(NCC[C@@H]1CC[C@H](NS(=O)(=O)Cc2ccccc2)[C@H](CO)O1)C1CC1 | -7 | -4 |
| C[C@H]1CN([C@@H](C)CO)C(=O)Cc2cc(N(C)C)ccc2O[C@@H]1CN(C)S(=O)(=O)c1ccccc1 | 2 | 1 |
| C[C@@H]1CN([C@@H](C)CO)C(=O)c2cc(NC(=O)CCC(F)(F)F)ccc2O[C@@H](C)CCCCO[C@@H]1CN(C)Cc1ccncc1 | 8 | 2 |
| CCO[C@@H]1OC(C(=O)Nc2ccccc2)=C[C@H](c2cn(C(C)=O)c3ccccc23)[C@H]1CCCO | -20 | -17 |
| C[C@@H]1CN([C@H](C)CO)S(=O)(=O)c2ccc(C#Cc3ccc(F)cc3)cc2O[C@H]1CN(C)S(C)(=O)=O | ? | nt |
| CN1[C@@H]2c3ccc(-c4cccnc4)c(=O)n3C[C@@H]2[C@@H](CO)[C@@H]1C(=O)N1CCc2ccccc2C1 | -6 | 7 |
| CCC(=O)N1C[C@H](O)COC[C@@H]2O[C@@H](CC(=O)NCc3ccc(Oc4ccccc4)cc3)CC[C@H]21 | 9 | 5 |
| COc1cccc(S(=O)(=O)N[C@H]2CC[C@H](CC(=O)NCc3ccc(F)cc3)O[C@H]2CO)c1 | 0 | -2 |
| C=CCN1C(=O)[C@@]2(O[C@@H](CCO)[C@H]([Si](C)(C)c3ccc(OC)cc3)[C@H]2C)c2ccccc21 | ? | nt |
| COCC(=O)N1CC2(C1)[C@@H](c1ccc(-c3cccc(F)c3)cc1)[C@H](CO)N2C(=O)COC | 2 | 7 |
| C[C@@H]1CCCCO[C@@H](CN(C)Cc2ccc(Cl)c(Cl)c2)[C@H](C)CN([C@H](C)CO)C(=O)c2cc(NS(=O)(=O)c3ccc(F)cc3)ccc2O1 | ? | nt |
| C[C@@H]1CN([C@H](C)CO)C(=O)c2cccc(NS(=O)(=O)c3cccs3)c2O[C@@H]1CN(C)S(=O)(=O)c1cn(C)cn1 | 7 | 0 |
| C[C@H]1CN([C@@H](C)CO)C(=O)Cc2cc(NS(=O)(=O)c3ccc(F)cc3)ccc2O[C@@H]1CN(C)CC1CCCCC1 | -23 | -17 |
| C[C@@H]1CN([C@H](C)CO)C(=O)CCCn2nncc2CO[C@@H]1CN(C)C(=O)Nc1ccc(-c2cccs2)cc1 | -4 | 2 |
| C[C@H]1CN([C@@H](C)CO)C(=O)c2cc(-c3ccccc3)cnc2O[C@H]1CN(C)C(=O)c1cccnc1 | 12 | 9 |
| Cc1ccc(S(=O)(=O)N(C)C[C@H]2OCc3cn(nn3)CCCC(=O)N([C@@H](C)CO)C[C@@H]2C)cc1 | -1&5 | 10&8 |
| CN(C)C(=O)c1ccc(-c2ccc([C@H]3[C@H](CO)N4C(=O)CN(C(=O)C5CCC5)C[C@@H]34)cc2)cc1 | -5 | -4 |
| C[C@@H]1CN([C@H](C)CO)C(=O)c2cccc(NS(C)(=O)=O)c2O[C@@H]1CN(C)CC1CCCCC1 | 7 | 2 |
| O=C(C[C@H]1CC[C@@H]2[C@H](COC[C@H](O)CN2CC2CCCCC2)O1)NCc1ccc(F)cc1 | -31 | -23 |

Next part
Screens in order: Vaccinia inh | Vaccinia inh Venus
- C[C@H](CO)N1C[C@H](C)[C@H](CN(C)Cc2ccc(Oc3ccccc3)cc2)Oc2c(NC(=O)Nc3ccc(C(F)(F)F)cc3)cccc2C1=O
  ? | nt
- C[C@@H]1CCCCO[C@@H](CN(C)C(=O)Nc2ccc3c(c2)OCO3)[C@@H](C)CN([C@H](C)CO)C(=O)c2cc(NS(=O)(=O)c3ccccc3)ccc2O1
  16 | 9
- C[C@@H]1CCCCO[C@@H](CN(C)S(=O)(=O)c2cccs2)[C@@H](C)CN([C@H](C)CO)C(=O)c2cc(NS(=O)(=O)c3ccc(Cl)cc3)ccc2O1
  20 | -3
- CCC(=O)Nc1ccc2c(c1)OC[C@H](C)N(Cc1ccccn1)C[C@H](C)[C@@H](OC)CN(C)C2=O
  7 | 6
- CC(=O)N1CCCCN2[C@@H](CO)[C@H](c3ccc(-c4ccc(C)cc4)cc3)[C@@H]2C1
  -8 | -14
- O=C(Cc1ccccn1)N1CC2(C1)[C@H](c1ccccc1)[C@H](CO)N2C(=O)c1ccccc1
  9 | 12
- COc1ccc(NC(=O)N(C)C[C@@H]2OCCCC[C@H](C)Oc3ccc(NC(=O)Nc4c(C)noc4C)cc3C(=O)N([C@H](C)CO)C[C@@H]2C)cc1
  8 | -6
- O=C(C[C@H]1CC[C@H]2[C@@H](COC[C@H](O)CN2S(=O)(=O)c2ccc(F)cc2)O1)N[C@@H]1CCN(Cc2ccccc2)C1
  -16 | -1
- CC(C)CC#Cc1ccc([C@H]2[C@H](CO)N3C(=O)CN(C(=O)c4cnccn4)C[C@@H]23)cc1
  28 | 3
- CO[C@H]1CN(C)C(=O)c2cc(NC(=O)C3CCC3)ccc2OC[C@H](C)N(Cc2ccccn2)C[C@H]1C
  1 | 1

Already shown: entries from further up.
Screens in order: Vaccinia inh | Vaccinia inh Venus
- O=C(Cc1ccccn1)N1CC2(C1)[C@H](c1ccccc1)[C@H](CO)N2C(=O)c1ccccc1
  9 | 12
- COc1ccc(NC(=O)N(C)C[C@@H]2OCCCC[C@H](C)Oc3ccc(NC(=O)Nc4c(C)noc4C)cc3C(=O)N([C@H](C)CO)C[C@@H]2C)cc1
  8 | -6
- O=C(C[C@H]1CC[C@H]2[C@@H](COC[C@H](O)CN2S(=O)(=O)c2ccc(F)cc2)O1)N[C@@H]1CCN(Cc2ccccc2)C1
  -16 | -1
- CC(C)CC#Cc1ccc([C@H]2[C@H](CO)N3C(=O)CN(C(=O)c4cnccn4)C[C@@H]23)cc1
  28 | 3
- CO[C@H]1CN(C)C(=O)c2cc(NC(=O)C3CCC3)ccc2OC[C@H](C)N(Cc2ccccn2)C[C@H]1C
  1 | 1

Next part.
Screens in order: Vaccinia inh | Vaccinia inh Venus
- COc1ccc(NC(=O)N(C)C[C@H]2Oc3ccc(NC(=O)CCCN(C)C)cc3C(=O)N([C@H](C)CO)C[C@@H]2C)cc1
  8 | 2
- Cc1noc(C)c1NC(=O)Nc1ccc2c(c1)CC(=O)N([C@@H](C)CO)C[C@@H](C)[C@@H](CN(C)Cc1ccccc1)O2
  7 | 6
- Cc1ccc(S(=O)(=O)N(C)C[C@H]2OCCCC[C@H](C)Oc3ccc(NS(=O)(=O)c4ccccc4)cc3C(=O)N([C@@H](C)CO)C[C@@H]2C)cc1
  ? | nt
- COc1cccc(-c2ccc([C@@H]3[C@H](CO)N4C(=O)CN(C(=O)C5CCC5)C[C@@H]34)cc2)c1
  -11 | -4
- C[C@@H]1CN([C@H](C)CO)C(=O)c2cc(C#CCN(C)C)cnc2O[C@@H]1CN(C)Cc1ccncc1
  8 | 9
- Cc1noc(C)c1NC(=O)N(C)C[C@@H]1OCCCC[C@H](C)Oc2ccc(NC(=O)Cc3ccccc3)cc2C(=O)N([C@@H](C)CO)C[C@@H]1C
  17 | 7
- O=C(C[C@@H]1CC[C@@H]2[C@H](COC[C@H](O)CN2C(=O)Nc2ccc(Cl)cc2)O1)N1CCCCC1
  -11 | -5
- C[C@@H]1CN([C@@H](C)CO)S(=O)(=O)c2ccc(-c3ccncc3)cc2O[C@@H]1CN(C)C(=O)CN(C)C
  5 | 7
- O=C(N[C@@H]1C=C[C@@H](CC(=O)N2CCC(Cc3ccccc3)CC2)O[C@@H]1CO)c1cnccn1
  8 | -7
- C[C@@H]1CCCCO[C@H](CN(C)S(=O)(=O)c2ccc(F)cc2)[C@@H](C)CN([C@H](C)CO)C(=O)c2cc(NS(=O)(=O)c3ccccc3)ccc2O1
  -5 | 0
- COc1ccc2c3c([nH]c2c1)[C@@H](CO)N(C(C)=O)CC31CCN(S(=O)(=O)c2cccs2)CC1
  -7 | -12
- C[C@@H]1CCCCO[C@@H](CN(C)Cc2ccc(C(=O)O)cc2)[C@@H](C)CN([C@H](C)CO)C(=O)c2cc(NC(=O)CCC(F)(F)F)ccc2O1
  22 | 19
- COc1ccc(S(=O)(=O)Nc2ccc3c(c2)CC(=O)N([C@@H](C)CO)C[C@@H](C)[C@H](CN(C)S(=O)(=O)c2cccs2)O3)cc1
  5 | 3
- O=C(C[C@H]1CC[C@@H]2[C@H](COC[C@H](O)CN2Cc2ccc(F)cc2)O1)NCc1ccccc1Cl
  -27 | -16
- CC=Cc1ccc2n(c1=O)C[C@@H]1[C@@H](CO)[C@H](C(=O)NCCc3ccncc3)N(Cc3cncnc3)[C@H]21 (mixture of isomers)
  7 | 8
- C[C@@H]1CN([C@@H](C)CO)C(=O)c2cc(C#C[C@@H](C)O)cnc2O[C@H]1CN(C)C(=O)c1ccc(F)cc1
  0 | -4
- O=C(C[C@H]1C[C@@H]2c3cc(NC(=O)c4cccnc4)ccc3O[C@@H]2[C@H](CO)O1)NCc1ccccn1
  4 | 4
- C[C@@H]1CN([C@H](C)CO)C(=O)Cc2cc(NC(=O)Nc3ccccc3)ccc2O[C@@H]1CN(C)Cc1ccc(C(F)(F)F)cc1
  ? | nt
- Cc1noc(C)c1S(=O)(=O)Nc1ccc2c(c1)C(=O)N([C@@H](C)CO)C[C@@H](C)[C@@H](CN(C)Cc1ccc3c(c1)OCO3)O2
  -8 | -11
- C[C@H]1CN([C@@H](C)CO)C(=O)c2cc(-c3ccc(C(=O)N(C)C)cc3)cnc2O[C@@H]1CN(C)Cc1ccc(C(=O)O)cc1
  33 | 11
- O=C(C[C@H]1CC[C@H]2[C@@H](COC[C@@H](O)CN2C(=O)c2ccccn2)O1)NC1CCC1
  2 | -8
- O=C(Nc1cc(F)ccc1F)N[C@@H]1CC[C@@H](CCn2cc(C3CC3)nn2)O[C@@H]1CO
  -9 | 0

Screening results (PubChem BioAssay)

Some of the compounds tested. The share of hits here may be higher or lower than overall.
